Compound activity as filed in PubChem.
CSC inhib: cancer stem cell viability inhibitors, primary screen, luminescence. cancer stem cell-like cells viability. inhibition, % at 7.5 µM. actives 1.1% (n = 300,000). AID 2717, 2010;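 active = mean at 75% or more and at least half the replicates too; inconclusive = mean and replicates disagree; tested in HMLE shEcad cells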;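 note: 0% = median of negative and 100% = median of positive control wells; the first replicate is given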
HIV Env fusion: inhibitors of HIV-1 Env-driven cell-cell fusion, primary screen, HeLa-JRFL effector, CEM21 target cells, luciferase; inhibition, % at 12.3 µM; actives 1.1% (n = 360,000); AID 651610, 2012;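 active = mean replicate inhibition score of at least 50 and every replicate individually at or above 50; inconclusive = only one of the two criteria met; inactive = mean below 50 and not all replicates reaching 50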;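 note: 0% = plate neutral controls and 100% = maraviroc near 300 nM; one replicate is shown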
MT1-MMP act inh: blockers of MT1-MMP proenzyme processing, primary screen, HT1080 RFP-PRO-GFP cells, GFP/RFP fluorescence; Matrix metalloproteinase-14 (Homo sapiens), P50281; GFP/RFP ratio fluorescence, overnight; percent of plate control window, DMSO zero; GFP/RFP ratio change, % at 20 µM; actives 0.061% (n = 360,000); AID 651647, 2012;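 active = GFP/RFP ratio change of at least 30% with cell ATP level not reduced by more than half and red fluorescence within 50% of control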; note: strong numbers were not always called active
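Material – HT1080 RFP-PRO-GFP cells · Control set – DMSO wells and RFP-L50D-GFP cells · Incubation – overnight cell settling, then overnight compound exposure, 37 °C, 5% CO2 · Compound dosing – single-point 20 µM compound, 1% DMSO · Read-out – GFP/RFP fluorescence ratio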
PABP polyA inh: PABP poly(A) RNA binding inhibitors, primary screen, biochemical, fluorescence polarization, uHTS; Polyadenylate-binding protein 1 (Homo sapiens), P11940; inhibition, % at 35 µM; actives 1% (n = 290,000); AID 2014, 2009;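 active = 50% or more with normal probe brightness, or confirmed in later tests; inconclusive = above 50% with abnormal brightness, or retests that disagree; inactive = below 50% or failed in later tests; about a fifth of its hits are not listed in these tables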;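 note: calls also rest on retests at 20 µM and on dose response follow-up; controls were probe without protein and protein plus probe with vehicle; some compounds called inactive have numbers as strong as hits; many hits fall short of the cut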
UUG fidelity: modulators of yeast start codon fidelity, primary screen, whole organism, S. cerevisiae, single point, plate reader; actives 0.13% (n = 350,000); activity score, % at 18.7 µM; S. cerevisiae UUG-firefly luciferase reporter, luminescence/redox ratio; AID 602363, 2012;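 active = replicate mean at a twofold rise or more, about +100% in these data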;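 note: firefly luciferase made from a UUG start codon reports start codon fidelity; reporter light over untreated wells divided by growth signal over untreated wells; some hits fall short of that in this replicate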
eIF4H inh: human eIF4H binding inhibitors, primary screen, translation initiation inhibitor project, biochemical, uHTS, fluorescence polarization. Eukaryotic translation initiation factor 4H (Homo sapiens), Q15056. eIF4H fluorescence polarization binding assay. inhibition, % at 35 µM. actives 0.94% (n = 290,000);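 active = 50% or more with normal probe brightness, or confirmed in later tests; inconclusive = above 50% with abnormal brightness, or retests that disagree; inactive = below 50% or failed in later tests; about a fifth of its hits are not listed in these tables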;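 note: calls also rest on retests at 20 µM and on dose response follow-up; 0% = protein and probe with vehicle and 100% = probe without protein; strong numbers were not always called active; many hits fall short of the cut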
Rce1 inh: yeast Rce1p protease inhibitors, primary screen, biochemical, fluorescence, cell-free homogeneous; yeast membranes, quenched prenylated peptide cleavage fluorescence; calls only; actives 0.27% (n = 290,000);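 active = fall in fluorescence gain of 50% or more versus controls, with final raw signal at or below 3038400; inconclusive = same 50% fall but final raw signal above 3038400; inactive = fall in fluorescence gain under 50%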;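 note: plate controls were neutral control wells for no effect and wells lacking membranes for full effect; tested at 10 µM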
Target sequence (Q03530 whole entry, looked up): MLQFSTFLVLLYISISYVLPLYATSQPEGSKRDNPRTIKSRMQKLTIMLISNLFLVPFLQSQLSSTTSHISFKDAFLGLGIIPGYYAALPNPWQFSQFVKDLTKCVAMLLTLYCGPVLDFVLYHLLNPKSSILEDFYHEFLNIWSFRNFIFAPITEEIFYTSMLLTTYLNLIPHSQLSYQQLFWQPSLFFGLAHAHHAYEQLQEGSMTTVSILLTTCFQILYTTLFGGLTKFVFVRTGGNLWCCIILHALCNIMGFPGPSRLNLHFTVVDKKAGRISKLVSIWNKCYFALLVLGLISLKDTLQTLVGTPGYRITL
MT1-MMP act inh RFP: further read-out of MT1-MMP act inh, marked with its call; RFP signal change, %; measured here: RFP expression control read;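 0 = vehicle wells; hits needed this value within 50% of zero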
Numbers without * were called inactive; i = inactive; ? = inconclusive; . = no result given; + = active, no number.

SMILES,CSC inhib,HIV Env fusion,MT1-MMP act inh,MT1-MMP act inh RFP,PABP polyA inh,UUG fidelity,eIF4H inh,Rce1 inh
CCC(Cc1ccccc1)NC(=O)CN1C(=O)CSc2ncccc21 (stereo not given),-10.6,7.0,4.8,-10.5,2.8,-14.7,-10.0,i
COc1ccc(-c2cc3nc(C)c(CCC(=O)N4CCN(c5ccccn5)CC4)c(C)n3n2)c(OC)c1,-11.0,17.9,0.9,-4.3,-12.7,.,-2.7,+
CCC(Sc1nc2ccncc2[nH]1)C(=O)Nc1ccc(C)c(Cl)c1 (stereo not given),0.3,26.5,-0.9,-3.6,-11.3,-15.2,-4.0,i
O=C(COC(=O)CCCN=C1NS(=O)(=O)c2ccccc21)NNC(=O)c1ccccc1,0.9,-0.4,2.1,-0.1,.,-14.5,.,i
Cc1n(CC(O)COC2CCCCC2)c2ccccc2[n+]1C (stereo not given),-2.8,.,0.8,0.6,-15.6,.,2.3,i
COc1cccc(/C=C/C(=O)OCC(=O)Nc2ccc(Cl)c(S(=O)(=O)N(C)C)c2)c1OC,-8.9,2.9,-1.4,2.0,-4.9,.,-2.0,+
Cn1c(=O)cc(OCC(=O)NC2CCCCC2)c2ccccc21,-8.9,?,3.7,0.9,2.5,-13.1,-2.6,i
O=C(c1cccc(S(=O)(=O)N2CCOCC2)c1)N1CCN(c2ccc(F)cc2)CC1,-3.5,-13.1,-0.2,0.2,9.9,2.5,-8.7,i
CC(C)OCCCNC(=O)c1cn(C)c2ccc(S(=O)(=O)N3CCCC3)cc2c1=O,1.4,-2.9,2.6,6.0,-0.5,-23.9,-12.4,i
N#Cc1c(N2C(=O)Nc3ccccc3N2O)sc2c1CCCC2,-8.1,-6.6,2.6,1.8,8.7,.,-6.7,i
COc1ccccc1-c1cccc([C@@H]2C[C@H]3[C@H](CON3C)CN2C)c1,.,25.6,2.7,4.9,.,2.0,.,.
CCCCNS(=O)(=O)c1ccc(OC)c(Cl)c1Cl,3.1,2.5,-3.5,-3.0,-9.3,-10.6,7.9,i
CC(C)(C)NC(=O)C(c1ccncc1)N(C(=O)C1CSC(=O)C1)c1ccccc1 (stereo not given),5.5,4.3,0.7,3.7,1.9,-12.5,-5.0,i
Cc1cc(C)c(C#N)c(Sc2nnnn2-c2ccccc2)n1,11.7,-9.6,2.9,2.8,0.2,-9.4,1.8,i
CC(C)(C)NC(=O)c1oc2ccccc2c1COc1ccccc1,8.4,7.7,-2.7,2.4,-12.6,-14.5,-13.8,i
COc1ccc(NCC(=O)N/N=C/C2CCCCC2)cc1,-13.4,-8.8,-1.7,0.5,-7.9,-8.2,-2.2,i
Cc1cc(O)ccc1NC(=O)c1ccccc1,3.4,.,6.4,6.6,7.2,.,-3.1,i
COc1cc(C(=O)NCCc2ccc(S(N)(=O)=O)cc2)cc(OC)c1OC,-5.0,-121.0,-0.9,3.1,-6.8,-15.7,-8.0,i
CCN(CC)S(=O)(=O)c1cc(OC)c(C)cc1C,-24.7,-18.7,3.5,4.4,-5.6,.,-5.5,i
CSc1nc(NCc2ccco2)c2ccccc2n1,11.7,-417.5,10.5,-6.3,-8.6,-14.0,-0.3,i
Cc1c(N=Nc2ccc(O)cc2)c(=O)n(-c2ccccc2)n1C,-0.1,-19.0,1.5,4.9,12.8,.,7.1,i
CC(C)Cn1c(N)c(C(=O)COC(=O)CCc2nc3ccccc3s2)c(=O)n(C)c1=O,-6.2,15.1,-0.6,-22.1,2.3,4.5,0.6,i
O=C(c1cccc(Cl)c1)N1CCC(N2CCC(C(=O)N3CCCC3)CC2)CC1,-12.2,-2.5,0.8,5.1,1.6,-2.7,4.8,i
O=C(COC(=O)/C=C/c1ccc(C(F)(F)F)cc1)NC1CC1,14.7,-2.7,4.4,7.6,.,-14.4,.,i
CNc1nc(-c2ccc3c(c2)CCN3C(=O)c2ccccc2F)cs1,.,-154.7,-2.7,-11.6,3.6,.,-13.7,i
COc1ccc(C(C)=O)cc1Cn1nc(C)c([N+](=O)[O-])c1C,1.7,4.9,-0.7,0.8,0.5,-10.5,-16.9,i
CCOc1ccc(CNC(=O)c2ccc(NC(=O)C3=CSCCO3)cc2)cc1,-4.4,-10.8,1.5,2.3,-5.2,-7.4,-1.1,i
COc1ccccc1N(C)S(=O)(=O)c1ccc(C(=O)NC(C)(C)C)cc1,-2.3,-16.5,4.7,-0.8,-0.4,-6.1,-1.1,i
Cc1cccc(CCN2C(Nc3ccccc3)=NC[C@@H]2C)c1,2.1,-23.1,0.3,0.7,.,-13.6,.,.
COc1ccc(Br)cc1C(=O)Nc1ccc(O)cc1,14.5,-17.0,7.9,0.3,0.0,-11.1,-4.7,i
CCOc1ccc(N(Cc2ccccc2F)C2=NC3CS(=O)(=O)CC3S2)cc1 (stereo not given),-5.1,-161.3,4.9,0.9,4.4,-21.8,0.8,i
CCc1ccccc1NC(=O)CC1CS(=O)(=O)CC1CC(=O)Nc1ccccc1CC (stereo not given),.,-23.1,2.3,-1.5,-11.8,-19.9,-2.2,i
COC(=O)c1ccc(OCc2nc(N)nc(N3CCOCC3)n2)cc1,-1.3,.,-2.5,-2.4,1.3,-16.1,-4.4,i
C=CCOC(=O)CCCCCCCC,-10.8,.,-2.9,6.1,.,-1.2,.,.
O=C(CSc1nnc(C2CC2)n1C1CC1)c1ccccc1F,.,-37.0,-0.3,4.4,.,-11.7,.,.
Cc1nnc(N(Cc2ccco2)C(=O)c2cccc(C#N)c2)s1,.,-33.7,3.6,1.1,-0.6,-3.3,-4.9,i
COc1ccc(/C=N/Nc2ncnc(Cl)c2N)cc1OC,-15.5,18.8,4.0,4.8,28.7,-12.6,-8.6,i
CC(C)NC(=O)Cn1c(SCC(=O)N2CCCc3ccccc32)nc2ccccc21,-7.6,?,4.1,1.5,5.3,-6.7,-5.1,i
COc1ccc(-n2nc(C(=O)NCC(=O)N3CCCC(C)C3)c3ccccc3c2=O)cc1 (stereo not given),22.6,-6.0,-2.0,1.2,4.3,6.9,-7.3,i
Cc1cc2occ(CC(=O)N(C)CC(=O)Nc3ccc(F)cc3)c2cc1C,-11.4,2.3,3.0,0.3,.,3.5,.,i

Brought forward from above: 2 entries; new compounds follow.
SMILES,CSC inhib,HIV Env fusion,MT1-MMP act inh,MT1-MMP act inh RFP,PABP polyA inh,UUG fidelity,eIF4H inh,Rce1 inh
COc1ccc(-n2nc(C(=O)NCC(=O)N3CCCC(C)C3)c3ccccc3c2=O)cc1 (stereo not given),22.6,-6.0,-2.0,1.2,4.3,6.9,-7.3,i
Cc1cc2occ(CC(=O)N(C)CC(=O)Nc3ccc(F)cc3)c2cc1C,-11.4,2.3,3.0,0.3,.,3.5,.,i
O=c1nc2ccccn2c2ccc(S(=O)(=O)N3CCCCC3)cc12,-3.6,2.8,-0.4,3.1,6.7,-40.6,4.8,i
NC(=O)NC(c1ccccc1)c1ccccc1F (stereo not given),-6.9,-11.7,3.4,2.2,4.4,.,-7.1,i
COC(=O)c1oc2nc(C)cc(C)c2c1N,-7.1,-35.3,0.8,-1.9,3.7,-2.2,-2.2,i
Cc1cc(C)cc(NC(=S)Nc2cccc3ccccc23)c1,1.0,-7.9,1.4,4.5,24.2,-22.6,5.3,i
Cc1ccccc1NS(=O)(=O)c1ccc(C(=O)NCC2CCCO2)cc1 (stereo not given),-3.9,1.8,0.4,-5.5,.,.,.,i
Cc1[nH][nH]c(=O)c1C=NCc1cccc(C(F)(F)F)c1,-3.6,0.2,-0.1,0.5,35.2,-8.3,-10.8,i
CC[C@]12c3[nH]c4ccc(Cl)cc4c3CCN1C(=O)[C@@H](CC(=O)NCC13CC4CC(CC(C4)C1)C3)C[C@@H]2C(=O)N1CCN(C(=O)C2CC2)CC1,.,57.7*,-9.3,-22.2,.,-26.2,.,.
Nc1nc(Sc2c([N+](=O)[O-])cc(C(F)(F)F)cc2[N+](=O)[O-])n[nH]1,-3.8,12.3,4.8,-2.0,-5.9,.,7.2,i
CCc1cccc2c(=O)c(C(=O)N3CCCCCC3)c[nH]c12,-17.1,-50.1,3.2,-2.4,-7.4,-16.0,-6.0,i
Cc1cc(C)c(S(C)(=O)=O)c(Oc2ccc(C(C)(C)C)cc2)n1,-2.7,.,2.1,-3.2,-10.8,.,-2.3,i
COc1ccc(CNC(=O)C2CC(=O)N(C3CCCCC3)C2)cc1 (stereo not given),-0.5,-12.5,0.0,1.0,-12.4,-13.4,2.5,i
COc1ccc(C(CNC(=O)CNC(=O)c2cc(OC)c(OC)c(OC)c2)N2CCOCC2)cc1 (stereo not given),.,0.1,-3.1,-0.8,.,-2.6,.,.
c1ccc2c(N3CCCCC3)nc(N3CCCC3)nc2c1,-1.7,-8.8,3.4,1.1,-2.2,-1.2,-1.8,i
Cc1cc2c(=O)[nH]c(N)nc2[nH]1,.,13.0,5.6,4.5,.,-18.8,.,.
O=C(CC(=O)c1cc(Cl)ccc1O)c1ccccc1,15.0,.,-4.3,-12.8,17.0,20.1,11.7,i
CCN1CC(CN(C)Cc2cn(-c3ccc(C)cc3)nc2-c2cccc(C)c2)CC1=O (stereo not given),-4.5,5.3,-4.9,-8.1,-3.5,.,0.9,i
Cc1ccc(Cn2c(NCCc3ccccc3)nc3c2c(=O)n(C)c(=O)n3C)cc1,-5.7,.,-13.5,-18.4,12.9,-8.1,0.2,i
CC(C)C1CC(CCNCc2ccc(N(C)C)cc2)(c2ccccc2)CCO1 (stereo not given),-30.1,.,-5.6,-9.5,1.2,-11.1,7.9,i
CCC(=O)N(CC(=O)Nc1sc(C)c(C)c1C(N)=O)C1CCCCC1,.,.,2.2,0.1,-11.8,-20.8,-3.9,i
COC(=O)C1CN(C(=O)COc2ccc(C)cc2)c2ccccc2O1 (stereo not given),-10.2,26.0,-5.1,3.7,-3.2,-2.8,3.8,i
CC(Nc1cc(=O)n(C)c(=O)[nH]1)c1ccccc1 (stereo not given),10.2,.,-1.5,7.6,0.0,-14.0,-4.3,i
N#Cc1c(SC(C(=O)O)c2ccccc2)nc2c(c1-c1cccs1)CCCC2 (stereo not given),12.6,13.3,-3.6,2.1,7.7,-1.8,-5.7,i
CCOc1ccc(NC(=O)/C(C#N)=C/c2ccc(N3CCCC3)c(C)c2)cc1,16.9,-89.4,-148.9,0.9,28.1,-22.7,36.6,.
Cc1ccc(C)c(NS(=O)(=O)c2c(C)ccc3nsnc23)c1,-2.7,.,0.6,-3.4,-4.0,-27.1,-6.2,i
COc1ccccc1C(=O)Nc1nnc(-c2ccco2)s1,3.2,.,2.2,-2.3,15.0,-13.9,35.2,i
O=C(NC1CCN(Cc2ccccc2)CC1)C12CC3CC(CC(C3)C1)C2,.,8.1,5.6,0.9,0.9,-7.3,-6.3,i
